Screening results: PubChem BioAssay, several laboratories
FGF22 binding = FGF22 (human) thermal shift binding. Q9HCT0. recombinant FGF22 thermal shift, SYPRO orange fluorescence; percent of sucrose octasulfate shift, DMSO zero. calls only at 9.99 µM. 340,000 compounds, 1.5% hits. AID 651658;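 active means melting point raised past a set limit in the mean and every replicate; inconclusive means no clear call; three in four hits are not shown here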
Target sequence (Q9HCT0 whole entry, looked up): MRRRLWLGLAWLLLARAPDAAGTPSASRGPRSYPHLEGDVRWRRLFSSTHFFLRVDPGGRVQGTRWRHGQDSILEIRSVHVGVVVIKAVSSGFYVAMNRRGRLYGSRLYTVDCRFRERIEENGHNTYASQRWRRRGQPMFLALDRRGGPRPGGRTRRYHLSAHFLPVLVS
E coli growth = E. coli growth inhibition | Escherichia coli growth, OD600, 23 h; active compounds read low | OD600 absorbance (test concentration not listed) | 330,000 compounds, 0.21% hits | AID 1053175;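 active means OD600 absorbance below the run mean of sample wells minus 3.6 SD, in any replicate, cut at about 0.56 in these data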;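 further: stock transfer was 300 nL into about 60 µL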
Ecoli rRNA inh = inhibits bacterial ribosomal RNA function over humanized ribosomes; E. coli WT GFP vs humanized-ribosome RFP mutants, fluorescence, 24 h; active compounds read low; DMSO median 0, no signal -100; GFP signal change (wild-type ribosome), % (no concentration beside the values); 350,000 compounds, 1.6% hits;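 active means significant combined selectivity score with lowered wild-type GFP, culture density cut under 30%, mutant RFP and density less affected; inactive means any of these conditions unmet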; further: one replicate is shown; some compounds called inactive have numbers as strong as hits
ALR inh = blocks human ALR sulfhydryl oxidase activity; P55789; purified ALR, DTT oxidation, H2O2 HRP-luminol luminescence; inhibition, % (concentration not given with the values); 290,000 compounds, 3.8% hits; AID 485317;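 active means mean and each replicate at 75% or more; inconclusive means only one of the two met; inactive means neither met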;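 further: stock transfer was 7.5 nL into about 7.5 µL; 0% = neutral wells and 100% = wells with inactivated enzyme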
Target sequence (P55789 whole entry, looked up): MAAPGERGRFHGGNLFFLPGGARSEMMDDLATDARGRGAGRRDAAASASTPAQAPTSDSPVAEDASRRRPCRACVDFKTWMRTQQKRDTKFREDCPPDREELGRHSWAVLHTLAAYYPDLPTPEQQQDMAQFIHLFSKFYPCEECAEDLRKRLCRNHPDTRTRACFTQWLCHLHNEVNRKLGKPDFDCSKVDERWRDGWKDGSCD
HNF4A DNA FP = change in binding of human HNF4 alpha to DNA | P41235 | HNF4a-FITC DNA binding, fluorescence polarization, 1 h | activity change, % at 10 µM | 360,000 compounds, 0.3% hits | AID 1224865; in the data active means activity change above about 30%, passing the limit was not always enough;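 further: controls were the assay level and a saturating level of protein; the project sought stronger binding though the title names inhibitors; some compounds called inactive have numbers as strong as hits; positive values seem to mean higher polarization but the record does not say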
Vif A3G = inhibitors of Vif binding to APOBEC3G peptide, primary screen, biochemical, TR-FRET, GST-Vif 1-94, biotin-A3G peptide, dose response retest (AID 1117319) | 260,000 compounds, 0.57% hits | inhibition, %, or IC50 in µM where a hit was titrated | TR-FRET GST-Vif / biotin-A3G peptide binding; higher % means a stronger effect; test concentration not given here; strong numbers were not always called active;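 active means above the screen mean plus three standard deviations and confirmed in dose response; inconclusive means results disagree or hit not tested in dose response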;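 further: Vif residues 1-94 fused to GST binding biotinylated APOBEC3G peptide 110-148; 0% = full assay without inhibitor and 100% = GST in place of GST-Vif; retest series ran down from 100 µM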
AF4-AF9 inh = inhibitors of human MLL-AF4/AF9 interaction. P42568. AlphaScreen, biotin-AF4 peptide binding to FLAG-AF9. inhibition, % at 10 µM. 350,000 compounds, 0.47% hits;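 active means every replicate reaching a set inhibition limit, whatever the replicate mean, cut at about 25% in these data; inconclusive means mean inhibition reaches that limit but some replicates miss it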;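 further: 0% = plate neutral control median and 100% = total signal loss; the record names both 10 and 1 µM as test concentration; the first replicate is given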
Ecoli rRNA inh OD600 = further read-out of Ecoli rRNA inh, marked with its call; OD600 change, %; measured here: OD600 growth;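 optical density of the mix in the first replicate; 0 = DMSO median and -100 = no signal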
Ecoli rRNA inh RFP = recorded beside Ecoli rRNA inh, whose call it bears; RFP signal change, %; measured here: RFP humanized mutant strains;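 first replicate; 0 = DMSO median and -100 = no signal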
An asterisk follows results filed as active; i = inactive; ? = inconclusive; nt = no result given. This is a subset; the hit share may differ from the screen's.

(1) CN(C)C(=O)c1cccc(-c2ccc([C@H]3[C@H]4CN(S(C)(=O)=O)CCCCN4[C@H]3CO)cc2)c1
(2) COc1ccc(OC)c(N/C(C)=C/C(=O)c2ccc(C)o2)c1
(3) CNS(=O)(=O)c1cccc(C(=O)OCCCOC(=O)c2cccc(S(=O)(=O)NC)c2)c1
(4) CCCc1nn(C(=O)c2ccccc2)c2c1C(=O)CC(C)(C)C2
(5) Cc1cc(=O)[nH]c(N/N=C/c2ccccc2Cl)n1
(6) O=C(CSc1nc2ccccc2nc1N1CCOCC1)N1CCN(c2ccccc2)CC1
(7) COc1ccc(-c2noc(CN(C)C(=O)c3ccoc3C)n2)cc1
(8) COC(=O)c1cc(=O)nc2sc(-c3cccs3)nn12
(9) COc1ccc(CN(C)C[C@@H]2Oc3ccc(NC(=O)Nc4ccc(OC)cc4)cc3CC(=O)N([C@@H](C)CO)C[C@H]2C)cc1
(10) CC(C)(C)C(=O)Nc1ccc(C(=O)NCc2cccnc2)cc1

| Screen / compound no. | 1 | 2 | 3 | 4 | 5 | 6 | 7 | 8 | 9 | 10 |
| --- | --- | --- | --- | --- | --- | --- | --- | --- | --- | --- |
| Ecoli rRNA inh OD600 | 11 | 7 | -5 | nt | 7 | -15 | 10 | nt | -2 | nt |
| FGF22 binding | i | nt | i | nt | i | i | i | nt | i | nt |
| HNF4A DNA FP | nt | -1.2 | 4.3 | -4.4 | -1.3 | 1.4 | 1.3 | -2.5 | nt | -0.1 |
| Vif A3G | nt | ? | nt | -1% | 0% | nt | -2% | -7% | nt | -3% |
| Ecoli rRNA inh | 1 | 3 | 0 | nt | 0 | -8 | 6 | nt | 0 | nt |
| Ecoli rRNA inh RFP | 3.7 | 4.5 | -0.8 | nt | 1.8 | 6.6 | 1.2 | nt | 8.2 | nt |
| E coli growth | nt | 0.66 | 0.7 | 0.68 | nt | 0.76 | 0.67 | 0.74 | nt | 0.73 |
| AF4-AF9 inh | 11 | nt | 0.4 | nt | -1.1 | 12 | -1.2 | nt | 13 | nt |
| ALR inh | nt | -7 | -8 | 58 | -16 | 1 | nt | 1 | nt | 0 |

(11) CNC[C@H]1Oc2ccc(NC(=O)c3ccncc3)cc2CC(=O)N([C@@H](C)CO)C[C@H]1C
(12) Cc1cc(N(C)C)c(C#N)c(NCc2ccccc2)n1
(13) CCc1ccc(-c2nc(CN3CCC(C(=O)N4CCN(c5ccccc5)CC4)CC3)c(C)o2)cc1
(14) O=C(Nc1ccc(N2CCCC2)c(Cl)c1)c1ccccc1F
(15) Cc1ccc(NC(=O)CCC(=O)NNC(=O)C(c2ccccc2)c2ccccc2)c(C)c1
(16) O=C(C[C@@H]1CC[C@H]2[C@@H](COC[C@@H](O)CN2C(=O)Nc2ccc(C(F)(F)F)cc2)O1)NCC1CCCCC1
(17) Cc1csc(OCc2ccc(C#N)cc2)n1
(18) COc1ccc(Cl)cc1NC(=O)C(C)NC(c1ccccc1)c1ccccc1 (stereo not drawn)
(19) COc1ccccc1-c1nnc(SCC(=O)Nc2ccccc2)o1
(20) CC(=O)c1cc2c(cc1NC(=O)CSc1nc3ccc(C)cc3[nH]1)OCO2

| Screen / compound no. | 11 | 12 | 13 | 14 | 15 | 16 | 17 | 18 | 19 | 20 |
| --- | --- | --- | --- | --- | --- | --- | --- | --- | --- | --- |
| Ecoli rRNA inh OD600 | 11 | nt | nt | -6 | nt | -78 | nt | nt | -19 | -20 |
| FGF22 binding | i | nt | nt | i | nt | i | nt | nt | i | i |
| HNF4A DNA FP | nt | 5.1 | 0.3 | -1.8 | 1.6 | nt | 0.0 | -1.5 | -1.4 | 2.5 |
| Vif A3G | nt | 1% | 31% | nt | 3% | nt | 1% | 13% | 2% | nt |
| Ecoli rRNA inh | 2 | nt | nt | 19 | nt | -55 | nt | nt | -23 | -9 |
| Ecoli rRNA inh RFP | -1.8 | nt | nt | 3.6 | nt | -16 | nt | nt | -1.9 | -14 |
| E coli growth | nt | 0.75 | 0.63 | nt | 0.67 | nt | 0.71 | 0.74 | 0.71 | 0.66 |
| AF4-AF9 inh | -5.4 | nt | nt | 0.3 | nt | -1.0 | nt | nt | -22 | 4.8 |
| ALR inh | nt | -5 | 32 | nt | -26 | nt | -5 | -2 | -3 | -5 |

4 entries from above, reformatted:
Second line of a record – Ecoli rRNA inh OD600, FGF22 binding, HNF4A DNA FP, Vif A3G, Ecoli rRNA inh, Ecoli rRNA inh RFP, E coli growth, AF4-AF9 inh, ALR inh
12: Cc1cc(N(C)C)c(C#N)c(NCc2ccccc2)n1
    nt, nt, 5.1, 1%, nt, nt, 0.75, nt, -5
13: CCc1ccc(-c2nc(CN3CCC(C(=O)N4CCN(c5ccccc5)CC4)CC3)c(C)o2)cc1
    nt, nt, 0.3, 31%, nt, nt, 0.63, nt, 32
14: O=C(Nc1ccc(N2CCCC2)c(Cl)c1)c1ccccc1F
    -6, i, -1.8, nt, 19, 3.6, nt, 0.3, nt
15: Cc1ccc(NC(=O)CCC(=O)NNC(=O)C(c2ccccc2)c2ccccc2)c(C)c1
    nt, nt, 1.6, 3%, nt, nt, 0.67, nt, -26

(listing goes on)
(21) CC1CCC(NC(=O)COC(=O)C2CC3CCCC(C2)C3=O)CC1 (stereo not drawn)
(22) Cc1nc(-c2ccc(Cl)cc2)sc1C1(C)CC(c2ccc([N+](=O)[O-])cc2)=NO1 (stereo not drawn)
(23) CC(=O)C[C@H]1c2cc(F)ccc2S(=O)(=O)N1c1ccc(N(C)C)cc1
(24) CCN1CCN(CNC(=O)c2cnccn2)CC1
(25) CC1CCN(S(=O)(=O)c2cc(F)ccc2CN2C(=O)c3cccnc3C2=O)CC1
(26) CO[C@H]1CN(C)C(=O)c2ccc(NS(=O)(=O)CC(F)(F)F)cc2OC[C@@H](C)N(Cc2nccs2)C[C@@H]1C
(27) Cc1cc(C)cc(N(C(=O)CNC(=O)c2ccco2)C(C(=O)NC2CCCCC2)c2ccncc2)c1 (stereo not drawn)
(28) CCOC(=O)c1ccc(N/C=C/C(=O)c2ccc(OC)c(OC)c2)cc1
(29) O=C(O)c1ccc(O)c2ncccc12
(30) CC1(C)Cc2ccccc2C2=NNC(=O)C2=N1
(31) COc1ccccc1-c1ccc2c(c1)O[C@H](CN(C)S(=O)(=O)c1ccccc1)[C@H](C)CN([C@@H](C)CO)S2(=O)=O

| Screen / compound no. | 21 | 22 | 23 | 24 | 25 | 26 | 27 | 28 | 29 | 30 | 31 |
| --- | --- | --- | --- | --- | --- | --- | --- | --- | --- | --- | --- |
| Ecoli rRNA inh OD600 | 7 | 12 | -10 | nt | 17 | 6 | 6 | nt | -11 | 6 | -7 |
| FGF22 binding | i | i | i | nt | i | i | i | nt | i | i | i |
| HNF4A DNA FP | 0.6 | 0.3 | 3.9 | -1.6 | 1.5 | nt | -0.5 | -2.0 | 1.2 | 4.0 | nt |
| Vif A3G | 1% | nt | nt | -4% | nt | nt | nt | -4% | nt | -13% | nt |
| Ecoli rRNA inh | 6 | 3 | -2 | nt | 1 | 2 | 5 | nt | -4 | 3 | -5 |
| Ecoli rRNA inh RFP | -1.5 | -3.2 | -1.5 | nt | 1.1 | -2.1 | -3.8 | nt | -4.6 | 0.0 | -1.9 |
| E coli growth | 0.72 | 0.64 | nt | 0.65 | 0.71 | nt | 0.66 | 0.72 | nt | 0.65 | nt |
| AF4-AF9 inh | -3.0 | 8.5 | 5.2 | nt | -1.4 | -2.0 | 1.5 | nt | -2.4 | -5.7 | -0.8 |
| ALR inh | -1 | nt | nt | -4 | 1 | nt | -4 | -9 | nt | 99* | nt |
